# Screening results: PubChem BioAssay, National Center for Advancing Translational Sciences (NCATS)
# TRPML1 inh = qHTS for Inhibitors of the Human Mucolipin Transient Receptor Potential 1 (TRPML1) | AID 624415, 2012 | hit rate 0.02% among 390,000 | Mucolipin-1 (Homo sapiens), Q9GZU1 | TRPML1-inducible cells, Ca2+ dye fluorescence, FDSS; stronger effect = lower value; inhibition of EC80 agonist-evoked calcium signal | activity change, negative = inhibition, % (concentration not given with the values); in the data active means activity change below about -50%; inconclusive means about -30% to -50%; inactive means above about -30%;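 also: stimulus is agonist 54-4 at its EC80 concentration; % is scaled to controls: 0 for no effect and ±100 for the full control effect; compound concentration not given in the record; the text of the record puts the active cut at -80%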
#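 TRPML1-DL cells, Tet-induced overnight (~16 h, 37 °C) at 1,500 cells/well, were loaded with Ca8 no-wash dye plus quencher for 45-90 min at room temperature. Compounds were pinned during FDSS kinetic reading; agonist 54-4 at EC80 (4 uM final) then added.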
# D2 potentiator = Beta-Arrestin HTS for Positive Allosteric Modulators of the Human D2 Dopamine Receptor: Potentiators; D(2) dopamine receptor (Homo sapiens), P14416; DiscoveRx D2 beta-arrestin cells, luminescence, 90 min; 100% = 57 uM dopamine signal; potentiation, % (test concentration not listed); hit rate 0.23% among 360,000; active = potentiation of 50% or more; inconclusive = 30% to 50%; inactive = 30% or less;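 also: compound concentration not given in the record; tested on top of an EC20 dose of dopamine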
#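 D2 cells co-treated with compound plus 50 nM dopamine (EC20) for 90 min at 37 deg C to detect potentiation. Beta-arrestin recruitment was read as enzyme-fragment luminescence after 1 h at ambient temperature. Full response was set by 57 uM dopamine.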
# Six1-Eya2 blk = qHTS Assay for Inhibitors of the Six1/Eya2 Interaction | hit rate 0.56% among 360,000 | AID 651725, 2012 | activity change, % (test concentration not listed) | AlphaScreen GST-Six1/His-Eya2 binding, biochemical; stronger effect = lower value; control for the full effect not named in the record | Homeobox protein SIX1 (Homo sapiens) + Protein phosphatase EYA2 (Homo sapiens), …; in the data active = activity change below about -65%; inconclusive = about -30% to -65%; inactive = above about -30%; also: % is scaled to controls: 0 for no effect and ±100 for the full control effect; compound concentration not given in the record
#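 AlphaScreen with GST-Six1 and His-Eya2 (5X mix: 250 nM and 500 nM), glutathione donor and nickel acceptor beads; buffer 50 mM Tris pH 8.0, 300 mM NaCl, 1 mM TCEP; 1 h at 37 C in the dark.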
# TRPML1 agonist = qHTS for Agonists of the Human Mucolipin Transient Receptor Potential 1 (TRPML1). Mucolipin-1 (Homo sapiens), Q9GZU1. TRPML1-expressing cells, Ca2+ dye fluorescence, FDSS; host cell line not named in the record; reference of the full effect not given here. activation, % (no concentration beside the values). hit rate 0.12% among 410,000. AID 624414, 2012; in the data active = activation above about 50%; inconclusive = about 30% to 50%; inactive = below about 30%; also: 0% is about no effect; the text of the record puts the active cut at 80%
#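 Tetracycline-induced TRPML1-DL cells are seeded and incubated overnight before loading with a no-wash Ca2+ dye and quencher. Agonist activity is taken from the 110 s fluorescence read following compound pin-transfer on an FDSS, before EC80 54-4 challenge.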
# TRPV1 potentiator = HTS Assay for Compounds that Act as Potentiators of the Vanilloid Receptor 1 | Transient receptor potential cation channel subfamily V member 1 (Homo sapiens), Q8NER1 | TRPV1-expressing cells, Fluo-8 calcium influx, capsaicin EC20 potentiation; host cell line not named in the record; control for the full effect not named in the record | potentiation, % at 8.33 µM | hit rate 0.02% among 320,000 | AID 540277, 2011; active means potentiation above 80%; inconclusive means 30% to 80%; inactive means below 30%; also: 0% is about no effect
# Target sequence (Q8NER1 whole entry, looked up): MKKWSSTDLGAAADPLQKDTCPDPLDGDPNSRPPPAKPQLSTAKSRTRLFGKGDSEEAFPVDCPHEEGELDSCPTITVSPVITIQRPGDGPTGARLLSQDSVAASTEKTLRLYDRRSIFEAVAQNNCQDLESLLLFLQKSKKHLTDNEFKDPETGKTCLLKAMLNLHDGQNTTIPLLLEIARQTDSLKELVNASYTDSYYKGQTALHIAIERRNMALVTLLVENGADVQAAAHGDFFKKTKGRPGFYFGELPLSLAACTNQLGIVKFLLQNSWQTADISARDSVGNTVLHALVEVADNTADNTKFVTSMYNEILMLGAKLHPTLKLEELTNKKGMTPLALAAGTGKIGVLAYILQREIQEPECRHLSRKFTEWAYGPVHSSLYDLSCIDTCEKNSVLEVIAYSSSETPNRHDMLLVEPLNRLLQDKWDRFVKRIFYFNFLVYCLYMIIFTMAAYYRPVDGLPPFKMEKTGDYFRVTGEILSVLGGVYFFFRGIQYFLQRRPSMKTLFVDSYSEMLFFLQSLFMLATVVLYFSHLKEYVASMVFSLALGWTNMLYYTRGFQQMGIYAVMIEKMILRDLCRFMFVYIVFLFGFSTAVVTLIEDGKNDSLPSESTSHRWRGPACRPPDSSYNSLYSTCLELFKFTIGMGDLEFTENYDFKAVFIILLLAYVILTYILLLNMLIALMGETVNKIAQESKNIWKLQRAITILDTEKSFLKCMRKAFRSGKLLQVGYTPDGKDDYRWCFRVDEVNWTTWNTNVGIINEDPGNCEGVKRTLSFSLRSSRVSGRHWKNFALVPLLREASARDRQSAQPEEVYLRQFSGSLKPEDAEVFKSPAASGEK
#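 Cells expressing TRPV1 were dye-loaded with Fluo-8 and read kinetically: 10 s baseline, 3 min after compound (agonist portion), then 2 min after EC20 capsaicin (allosteric enhancer portion). Calcium-bound dye fluorescence at 480/520 nm.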
# CtBP-E1A inh = qHTS Assay for Inhibitors of the CtBP/E1A Interaction. CtBP / adenovirus E1A interaction (AlphaScreen). AlphaScreen GST-E1A/His-CtBP binding, 1536-well; stronger effect = lower value; control for the full effect not named in the record. activity change, % (test concentration not listed). hit rate 0.49% among 340,000; in the data active means activity change below about -65%; inconclusive means about -30% to -65%; inactive means above about -30%; also: % is scaled to controls: 0 for no effect and ±100 for the full control effect; compound concentration not given in the record
#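 GST-E1A and His-tagged CtBP (125 nM each as 5X stock) were preincubated with pin-transferred compound for 2 h at 37 °C in the dark, then glutathione donor and nickel acceptor beads were added for 1 h before AlphaScreen reading.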
# * hit, by the source's call; ? = inconclusive; · = no result given. This is a random part of the collection; overall some 0.95% were active at least once.
structure	TRPML1 agonist	CtBP-E1A inh	Six1-Eya2 blk	TRPV1 potentiator	D2 potentiator	TRPML1 inh
CCC(=O)N(c1nnc(SCC(=O)NN2C(=O)NC3(CCCCC3)C2=O)s1)C1CC1	-1.2	·	7.2	0.7	1.6	4.8
COc1ccccc1/C=N/n1c(N)c(C(=O)NC2CCCCC2)c2nc3ccccc3nc21	0.2	-6.8	5.8	-1.9	-17.5	19.5
COc1ccc(C2=NN(Cc3ccccc3)C3C(=O)NC(=O)C23)cc1 (stereo not given)	0.0	-2.3	-5.3	2.9	-2.1	2.0
CC(=O)C1=NN(c2ccc(Cl)cc2)C(c2ccc3c(c2)OCO3)N(C(C)=O)N1C (stereo not given)	4.2	-30.0	-23.8	-20.6	-7.1	-5.0
N#Cc1cn(Cc2ccccc2)c2ccccc12	0.6	16.2	17.1	-7.8	-12.0	-7.8
O=S(=O)(c1ccc(Cl)cc1)N1CCc2ccccc21	1.6	9.2	14.7	19.7	-0.7	1.1
O=C(c1ccc(Cl)cc1)N1CCC(O)(CSc2ccc(Cl)cc2Cl)CC1	0.8	-5.3	-6.6	?	-2.7	-2.5
CCC(=O)N(CCc1ccccc1C)Cc1cc2cc3c(cc2[nH]c1=O)OCO3	-1.0	2.8	6.5	-3.3	2.7	41.6
COc1ccc2nc(/C(C#N)=C\c3ccc(C(=O)O)cc3)[nH]c2c1	5.2	?	?	-5.4	17.6	5.9
Cc1ccccc1NC(=O)/C(C#N)=C\c1cc(C)n(-c2ccc(C(=O)O)cc2)c1C	-0.1	2.2	-11.8	-3.4	-10.6	-13.8
O=S(=O)(NCCN1CCCC1)c1ccc(C(F)(F)F)cc1	0.5	·	-1.4	-5.2	-9.6	35.9
Cc1ccnc(Nc2nc(-c3ccccc3)cs2)c1	5.9	·	5.3	-1.6	-10.2	-14.6
COc1ccc(C(=O)NCC2CCCO2)cc1S(=O)(=O)NCc1ccc(Cl)cc1 (stereo not given)	-0.1	-3.2	5.4	·	-16.6	1.6
CNC(=O)c1c(NC(=O)c2ccc(S(=O)(=O)N3CCCc4ccccc43)cc2)sc2c1CCN(C)C2	14.4	-0.4	3.4	-2.7	-9.7	-15.1
COc1ccc(/C=C(\NC(=O)c2ccccc2)C(=O)N/N=C/c2sccc2C)cc1	-0.5	10.6	0.1	-11.3	-29.4	-0.7
CC1=C(C)CC(C(=O)NNC(=O)c2ccccc2)C(C(=O)O)C1 (stereo not given)	0.5	-0.9	5.0	-3.8	7.7	-5.4
CCNC(=S)N/N=C/c1cccc(C)c1	2.9	2.8	-1.8	-11.7	-1.6	9.5
CN(C)c1nc(SCC(=O)Nc2ccccc2)nc(N2CCOCC2)n1	2.3	4.2	3.8	0.0	1.7	-18.4
CC(C)(C)NCc1cc2ccccc2[nH]c1=O	0.2	-2.0	-1.6	-0.3	-8.5	24.4
O=C(N1CCCCCC1)N1CCN(C(=O)N2CCCCC2)CC1	0.6	6.3	-3.7	-10.8	-7.9	-14.3
CC1CCN(c2c(NCC3CCC(C(=O)NCCC4=CCCCC4)CC3)c(=O)c2=O)CC1 (stereo not given)	0.8	0.1	-0.5	3.7	-1.0	14.1
Cc1ccc(C(=O)C2=C(O)C(=O)N(Cc3cccnc3)C2c2ccc(OC(C)C)cc2)o1 (stereo not given)	0.6	0.1	0.3	-4.1	-5.9	-17.5
O=C(NCc1cccc(C(F)(F)F)c1)C1CC(c2cccc(F)c2)=NO1 (stereo not given)	-0.4	7.5	3.3	-10.7	-15.6	-4.0
Cc1ccc(S(=O)(=O)N2CCN(C(=O)CCn3cncn3)CC2)cc1	-0.5	4.4	6.0	-10.8	-4.8	11.2
O=S(=O)(Nc1cccc(-c2cn3c(n2)SCC3)c1)c1ccc(F)cc1F	-0.6	-2.2	-27.1	14.7	-13.1	-18.3
COc1ccc([N+](=O)[O-])cc1NC(=O)COC(=O)Cc1cc(OC)c(OC)c(OC)c1	0.0	-2.3	-3.4	29.1	-7.6	-8.6
Cc1cc(NC(=O)c2cc3n(n2)C(C(F)(F)F)CC(c2ccc(Cl)c(Cl)c2)N3)no1 (stereo not given)	0.7	4.9	-2.0	4.7	-9.0	3.9
Cc1nc(C)c(CC(=O)N/N=C/c2ccc(O)cc2)c(=O)[nH]1	0.5	13.4	2.7	-1.0	-2.4	5.2
CC1(C)CC(=O)C2=C(C1)NCN(Cc1ccc3c(c1)OCO3)C2	-0.7	9.6	-2.5	-9.5	-14.6	-6.9
COc1ccc(C(C)=O)c(Oc2cc(NN3CCCCC3)c([N+](=O)[O-])cc2[N+](=O)[O-])c1	0.8	-0.8	1.7	-6.4	-59.9	-2.7

# Sorted by value in CtBP-E1A inh (ascending): 3 of the compounds above
SMILES	CtBP-E1A inh
COc1ccc([N+](=O)[O-])cc1NC(=O)COC(=O)Cc1cc(OC)c(OC)c(OC)c1	-2.3
CN(C)c1nc(SCC(=O)Nc2ccccc2)nc(N2CCOCC2)n1	4.2
O=S(=O)(c1ccc(Cl)cc1)N1CCc2ccccc21	9.2

# Continuation:
structure	TRPML1 agonist	CtBP-E1A inh	Six1-Eya2 blk	TRPV1 potentiator	D2 potentiator	TRPML1 inh
Cc1ccc(-c2cc(C(=O)N3CCN(c4ccccc4O)CC3)c3ccccc3n2)cc1	0.0	-17.8	-15.6	29.1	-3.9	-11.2
COc1cccc2[nH]c3c(N4CCC5(CC4)OCCO5)ncnc3c12	-0.9	·	-0.8	16.3	-17.8	-0.1
COC(=O)c1oc2c(c1C)C(=O)CCC2	0.2	6.7	-2.7	27.5	-3.0	16.4
C=CCSc1cc(C)nc2c(-c3ccc(Cl)cc3)c(C)nn12	4.0	0.7	8.5	-4.3	-24.1	6.6
O=C(COc1cccc2c1CCN(Cc1ccc(Br)cc1)C2=O)N1CCOCC1	-0.1	0.4	-1.0	-2.5	-3.4	-5.3
N#CCCN(Cc1ccccc1)C(CCc1ccccc1)C(=O)NC1CCCCC1 (stereo not given)	1.8	18.7	10.4	·	-7.5	·
COc1ccc(S(=O)(=O)N2CCOCC2)cc1NC(=O)/C=C/c1ccc(F)cc1	-0.3	-1.9	-3.3	-5.8	-16.1	18.2
COCCCn1c(C)nc2c(c1=O)c1nc3ccccc3nc1n2CCc1ccccc1	-0.8	1.4	7.1	-6.5	5.3	8.3
O=C(Nc1ccc(F)cc1)C1CCN(C(=O)NCc2ccccc2)CC1	-1.0	1.8	1.5	-2.6	-2.9	-3.5
CC(C)C(=O)NNC(=O)CC(=O)Nc1ccccc1C(=O)O	·	-23.6	-21.9	0.5	-7.1	·
COc1ccc(S(=O)(=O)N2CCC(C(=O)NCC3CCCO3)CC2)cc1Cl (stereo not given)	0.4	1.0	-2.5	4.3	0.3	9.4
O=C1N=C2SCCN2/C1=C\c1ccc(Cl)cc1	-0.7	4.1	9.0	-5.6	-20.6	-4.7
COC(=O)c1c(NC(=O)CN2CCN(c3cccc(Cl)c3)CC2)sc(C)c1C	0.1	-18.6	3.1	8.2	-6.7	3.6
O=C(OC1CCOC1=O)c1ccc(CO)cc1 (stereo not given)	0.4	-0.7	-0.5	16.8	-3.5	10.6
Cc1ccc(C(=O)NCC2CCCO2)cc1S(=O)(=O)N1CCCCC1 (stereo not given)	0.4	7.6	2.2	-9.8	1.4	-6.5
COc1cccc(C(=O)NNc2nc(C)cc(C)n2)c1	-0.4	-2.3	2.5	-0.3	7.6	?
CCCc1cc(-c2n[nH]c(=S)n2Cc2ccccc2)cs1	1.3	0.7	-7.8	-9.0	-17.3	22.4
Cc1ccc(C(C(=O)NC2CCCC2)N(Cc2cccnc2)C(=O)c2snc(C(N)=O)c2N)o1 (stereo not given)	-0.2	2.5	-2.6	9.0	-12.6	-1.7
COC(=O)c1c(N2C(=O)[C@H]3[C@@H](C2=O)[C@]2(C(=O)Nc4c(C)cccc42)N2CCC[C@@H]32)sc(C)c1C	1.2	3.2	-9.3	-28.7	-5.0	9.1
CC(=O)NC12CC3CC(C1)CC(C(=O)NCc1ccc(C)cc1)(C3)C2	0.8	-1.9	-8.1	-17.6	-5.8	-2.8
O=C1NCC(COCc2ccccc2)O1 (stereo not given)	-0.2	2.5	5.1	-0.7	-10.1	21.2
CCN(CC)S(=O)(=O)c1ccc2oc(SCC(=O)NCc3ccccc3)nc2c1	0.4	4.2	0.1	15.2	-6.4	-12.4
OC(c1ccccc1)(c1ccccc1)C1CCN(CCCOc2ccccc2)CC1	3.9	-2.0	-8.1	·	·	·
CC(C)Cc1ccc(CN2CCCC(NC(=O)c3ccoc3)C2)cc1 (stereo not given)	-0.1	-0.6	-12.6	-8.9	-39.3	48.5
Cc1nn(Cc2ccccc2)c(C)c1NC(=O)CCCn1nc([N+](=O)[O-])cc1C	-0.8	1.9	2.6	-4.1	-4.2	3.1
O=C(CSc1nnc(CCCOc2ccc(Cl)cc2Cl)o1)Nc1ccc(C(=O)O)cc1	-0.7	3.4	-5.2	-4.0	-1.4	13.8
CN(CC(=O)Nc1cccc(F)c1)C(=O)CCCc1c[nH]c2ccccc12	0.6	-3.6	-10.1	15.7	-2.9	-4.4
O=C(c1ccc2c(c1)OCO2)N1CCN(c2ccc(F)cc2)CC1	0.0	-6.6	-0.4	-10.4	-8.4	29.6
COc1ccc(C(=O)N2CCN(CCc3ccccc3)CC2)cc1[N+](=O)[O-]	-0.2	0.0	0.0	-6.4	-45.1	24.6
Cc1cc(C)c(C#N)c(SCCN2CCOCC2)n1	-0.1	10.3	-8.5	5.7	-7.3	-3.7
CC(C)C/C=C1\CCc2c([nH]c3ccccc23)C1=O	0.4	-14.1	2.1	-3.1	-2.0	4.3
Cc1cnc(C(=O)N2CCCC(N3CCN(c4ccccc4F)CC3)C2)cn1 (stereo not given)	0.4	-4.1	7.1	-6.2	-17.6	3.8

# Fetched by structure from above (2):
structure	TRPML1 agonist	CtBP-E1A inh	Six1-Eya2 blk	TRPV1 potentiator	D2 potentiator	TRPML1 inh
N#CCCN(Cc1ccccc1)C(CCc1ccccc1)C(=O)NC1CCCCC1 (stereo not given)	1.8	18.7	10.4	·	-7.5	·
O=C(COc1cccc2c1CCN(Cc1ccc(Br)cc1)C2=O)N1CCOCC1	-0.1	0.4	-1.0	-2.5	-3.4	-5.3
